Anaer choline gr: growth inhibitors of anaerobic choline-fed gram-negatives, minimal medium, absorbance; Gram-negative bacterium anaerobic choline minimal medium; active compounds read low; many inactives read as strong as hits in the columns shown; calls only; 55,000 compounds, 0.2% hits;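 active = growth z-score on choline under -2 at 7 or 20 h with little or no fall on glycerol, limits in tiers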;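 note: stock transfer was 300 nL into about 50 µL; the organism is E. coli; final concentration not given here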
Anaer choline gr early: recorded beside Anaer choline gr, whose call it bears; z-score; measured here: choline growth z-score, timepoint 1;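 score of optical density at 7 h as mean of two plates; lower means less growth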
Starred values were filed as active, the others as inactive; & = joins results of further samples.

O=C(Cn1nc2c3scc(-c4ccc(F)cc4)c3ncn2c1=O)Nc1ccc(F)cc1 was read as Anaer choline gr inactive and Anaer choline gr early 0.78.
For COc1cc(Cl)c(NC(=O)C2CCC(=O)N2S(=O)(=O)c2ccccc2)c(OC)c1 (stereo unspecified) the results were Anaer choline gr inactive and Anaer choline gr early -0.35.
COc1ccc(CN2C(=O)c3cccnc3C2=O)cc1S(=O)(=O)N1CCc2ccccc2C1 was read as Anaer choline gr inactive and Anaer choline gr early 0.37.
For COc1ccc(NS(=O)(=O)c2ccc(N3C(=O)CCS3(=O)=O)cc2)cc1OC the results were Anaer choline gr inactive and Anaer choline gr early -1.7.
For CN(C)S(=O)(=O)c1ccc2c(c1)nnn2CCCC(=O)N1CCN(c2ccccn2)CC1 the results were Anaer choline gr inactive and Anaer choline gr early -0.91.
O=C(Nc1ccc2c(c1)OCO2)c1ccc(N2C(=O)CCS2(=O)=O)cc1 was read as Anaer choline gr inactive and Anaer choline gr early 0.73.
`Cc1ccc(-c2c(Nc3ccc(F)cc3)c(=O)c2=O)cc1` gave Anaer choline gr inactive and Anaer choline gr early -0.8.
Screening CN(CCNC(=O)CCC(=O)N1CCCN(c2nc3cccnc3s2)CC1)C1CCCCC1 returned Anaer choline gr inactive and Anaer choline gr early -0.56.
Screening CCN(CC)CCNC(=O)c1nc(N2CCSCC2)c2cn(C)nc2n1 returned Anaer choline gr inactive and Anaer choline gr early 1.2.
For COc1ccc(-c2nc3n(c2C(N)=O)CCS3(=O)=O)cc1 the results were Anaer choline gr inactive and Anaer choline gr early 0.14.
`CCOc1ccc(NC(=O)c2oc3cc(Br)ccc3c2C)c2cccnc12` gave Anaer choline gr inactive and Anaer choline gr early 1.3.
`Cc1ccc(NC(=O)CCc2nc(-c3ccc(S(=O)(=O)N4CCCC4)cc3)no2)cc1C` gave Anaer choline gr inactive and Anaer choline gr early 1.2.
Screening Cc1cccc(NC(=O)N2CCN(Cc3nc(-c4ccccc4)oc3C)CC2)c1C returned Anaer choline gr inactive and Anaer choline gr early 0.
Screening Cc1sc(-c2nc(-c3ccc(Cl)cc3)no2)cc1S(=O)(=O)N1CCc2ccccc2C1 returned Anaer choline gr inactive and Anaer choline gr early -0.94.
Screening COc1cc([C@H]2N(c3nccs3)C(=O)[C@@H]3CCCN32)cc(OC)c1OC returned Anaer choline gr inactive and Anaer choline gr early 0.94.

Structures above that contain a Cl atom (two):
For COc1cc(Cl)c(NC(=O)C2CCC(=O)N2S(=O)(=O)c2ccccc2)c(OC)c1 (stereo unspecified) the results were Anaer choline gr inactive and Anaer choline gr early -0.35.
Screening Cc1sc(-c2nc(-c3ccc(Cl)cc3)no2)cc1S(=O)(=O)N1CCc2ccccc2C1 returned Anaer choline gr inactive and Anaer choline gr early -0.94.

Additional compounds
Screening Cc1ccc(CSc2ncnc3nc[nH]c23)cc1 returned Anaer choline gr inactive and Anaer choline gr early 0.14.
Screening Cc1sc(-c2nc(-c3cccc(F)c3)no2)cc1S(=O)(=O)N1CCN(c2ccccn2)CC1 returned Anaer choline gr inactive and Anaer choline gr early -0.9.
For CC(C)Oc1ccc(C2N3CC4(C)CN2CC(C)(C3)C4O)cc1 (stereo unspecified) the results were Anaer choline gr inactive and Anaer choline gr early -1.6.
For CCCCSc1nc2c(cnn2-c2ccc(F)cc2)c(=O)[nH]1 the results were Anaer choline gr inactive and Anaer choline gr early -0.35.
For COc1cccc(Cn2c(C)c(C3CCN(S(=O)(=O)c4cccc5nsnc45)CC3)c3ccccc32)c1 the results were Anaer choline gr inactive and Anaer choline gr early 0.5.
`CCOc1ccccc1C1CC(=O)Nc2c1c(C)nn2-c1nncc(-c2ccc(C)cc2)n1` (stereo unspecified) gave Anaer choline gr inactive and Anaer choline gr early 1.5.
`O=C(Nc1ccc(Sc2nc3ccccc3n3nnnc23)cc1)c1ccccc1Cl` gave Anaer choline gr inactive and Anaer choline gr early 0.21.
For CCn1nc(C)c2c1c(=O)n(Cc1ccccc1)c(=O)n2Cc1ccccc1Cl the results were Anaer choline gr inactive and Anaer choline gr early 0.43.
COC(=O)C1=CC[C@@]23CC[C@@H]([C@@](C)(/C=C/C=C(\C)C(=O)O)OC2=O)[C@@]3(OC(C)=O)CC1 was read as Anaer choline gr inactive and Anaer choline gr early -0.19.
`C=CCn1ccc2c(OCC(=O)Nc3ccc4c(c3)OCCO4)cccc2c1=O` gave Anaer choline gr inactive and Anaer choline gr early 1.4.
`COc1ccccc1NC(=O)n1ncc2cc(Cl)ccc21` gave Anaer choline gr inactive and Anaer choline gr early 0.67.
For CN(C)S(=O)(=O)c1ccc(-c2nc(C#N)c(N3CCOCC3)o2)cc1 the results were Anaer choline gr inactive and Anaer choline gr early -2.1.
Screening Brc1ccc(-c2cc3c(N4CCN(c5ccccc5)CC4)nccn3n2)cc1 returned Anaer choline gr inactive and Anaer choline gr early -1.2.
For Fc1ccccc1-c1ccc(CNCCCn2ccnc2)o1 the results were Anaer choline gr inactive and Anaer choline gr early -0.62.
CCOC(=O)c1c(NC(=O)Cc2csc(C)n2)sc(C)c1C was read as Anaer choline gr inactive and Anaer choline gr early -0.08.

Structures shown so far that have a furan ring, fused or not, in the order listed:
`CCOc1ccc(NC(=O)c2oc3cc(Br)ccc3c2C)c2cccnc12` gave Anaer choline gr inactive and Anaer choline gr early 1.3.
For Fc1ccccc1-c1ccc(CNCCCn2ccnc2)o1 the results were Anaer choline gr inactive and Anaer choline gr early -0.62.

The list continues.
`CC(C)c1nc(CN2CCCCC2C)cc(=O)[nH]1` (stereo unspecified) gave Anaer choline gr inactive and Anaer choline gr early -0.84.
For O=S1(=O)C[C@H](NCCC2=CCCCC2)[C@@H](S(=O)(=O)c2cccs2)C1 the results were Anaer choline gr inactive and Anaer choline gr early -2.5.
CCN(CC)C(=O)/C(C#N)=C/c1cc(O)c(O)c([N+](=O)[O-])c1 was read as Anaer choline gr inactive and Anaer choline gr early -0.41&0.29.
COc1ccccc1CNC(=O)C1CCN(c2ncnc3c2sc2nc(C)cc(-c4ccccc4)c23)CC1 was read as Anaer choline gr inactive and Anaer choline gr early 0.31.
For CCc1nnc(-c2coc(S(=O)(=O)N3CCCC3)c2)o1 the results were Anaer choline gr inactive and Anaer choline gr early -2.1.
Screening Cc1cccc(-c2nnc(SCc3cc(=O)n4c(C)csc4n3)o2)c1 returned Anaer choline gr inactive and Anaer choline gr early 0.89.
COc1ccc(N(C)C(=O)Cc2c(C(=O)O)n(C)c3ccccc23)cc1 was read as Anaer choline gr inactive and Anaer choline gr early -0.72.
For COc1ccccc1N1CCN(C(=O)c2cnc3sccn3c2=O)CC1 the results were Anaer choline gr inactive and Anaer choline gr early -0.67.
Screening Cc1nc(N)[nH]c(=O)c1Br returned Anaer choline gr inactive and Anaer choline gr early -0.3.
CCCCOc1ccc(-c2cc3c(SCC)nccn3n2)cc1 was read as Anaer choline gr inactive and Anaer choline gr early 0.07.
For N#Cc1cnc2c(-c3ccc(Cl)cc3)cnn2c1N the results were Anaer choline gr inactive and Anaer choline gr early 0.26.
For CCCC(=O)Nc1cc(C)nn1-c1ncnc2c1cnn2-c1ccc(F)cc1 the results were Anaer choline gr inactive and Anaer choline gr early -0.92.
For CCS(=O)(=O)N1CCC(N2CCN(Cc3ccc(C)cc3)C(=O)C2=O)CC1 the results were Anaer choline gr inactive and Anaer choline gr early 0.52.
COc1ccc(NC(=O)C2CCN(S(=O)(=O)c3cc(-c4noc(C)n4)sc3C)CC2)c(OC)c1 was read as Anaer choline gr inactive and Anaer choline gr early -0.62.
`O=C(CN1C(=O)C2CCCCN2c2ccc(C(=O)N3CCCC3)cc21)NCc1ccc(F)cc1Cl` (stereo unspecified) gave Anaer choline gr inactive and Anaer choline gr early 0.51.
`CC(Oc1ccc(C(C)C)cc1)C(=O)Nc1onc2c1CCCC2` (stereo unspecified) gave Anaer choline gr inactive and Anaer choline gr early -0.06.
Screening Cc1nc(CNC(=O)[C@H]2CSCN2S(=O)(=O)c2ccc(Br)cc2)cs1 returned Anaer choline gr inactive and Anaer choline gr early 0.39.
CS(=O)(=O)NCCc1csc2nc(-c3cccc(F)c3)nn12 was read as Anaer choline gr inactive and Anaer choline gr early -0.34.
For CCc1onc(C)c1C1CCCN1Cc1ccc(OC)cc1 (stereo unspecified) the results were Anaer choline gr inactive and Anaer choline gr early -1.2.
CC1=C(C(=O)Nc2ccccc2)C(c2cccc(Br)c2)n2nc(SCc3ccccc3)nc2N1 (stereo unspecified) was read as Anaer choline gr inactive and Anaer choline gr early 2.
For c1ccc(CSc2nc3ccccc3n3nnnc23)cc1 the results were Anaer choline gr inactive and Anaer choline gr early 0.29.
Screening O=C(Nc1cccc(F)c1)c1nnc(CCCC(=O)N2CCN(c3ccccc3)CC2)s1 returned Anaer choline gr inactive and Anaer choline gr early -0.35.
For Cc1ccc2[nH]cc(CCN3CC(C(=O)Nc4ccccc4)CC3=O)c2c1 (stereo unspecified) the results were Anaer choline gr inactive and Anaer choline gr early -1.6.
Screening Fc1ccc(-c2nc(-c3ccc4nncn4c3)no2)c(Cl)c1 returned Anaer choline gr inactive and Anaer choline gr early -0.05.
CCOc1ccc(-c2csc(Nc3ccccn3)n2)cc1 was read as Anaer choline gr inactive and Anaer choline gr early 2.3.
CN(C)S(=O)(=O)c1ccc(-c2nc(C#N)c(NC3CCCCC3)o2)cc1 was read as Anaer choline gr inactive and Anaer choline gr early 0.65.
CCCc1nnc(-c2sccc2C)o1 was read as Anaer choline gr inactive and Anaer choline gr early -1.1.
For CCC(C)NC(=O)C(C)C1CCN(C(=O)c2cc3cc(Cl)ccc3[nH]2)CC1 (stereo unspecified) the results were Anaer choline gr inactive and Anaer choline gr early -0.04.
Screening COC(=O)c1ccc(N2CCN(C)CC2)c(NC(=O)COc2ccc(OC)cc2)c1 returned Anaer choline gr inactive and Anaer choline gr early 0.17.
For Cc1cc(NCC2CCCO2)n2nc(C(F)(F)F)c(-c3ccccc3Cl)c2n1 (stereo unspecified) the results were Anaer choline gr inactive and Anaer choline gr early -0.17.

Quoted at random: 2 records from the list
Screening Fc1ccc(-c2nc(-c3ccc4nncn4c3)no2)c(Cl)c1 returned Anaer choline gr inactive and Anaer choline gr early -0.05.
CCOc1ccc(-c2csc(Nc3ccccn3)n2)cc1 was read as Anaer choline gr inactive and Anaer choline gr early 2.3.

(more compounds)
`CN(C)S(=O)(=O)c1cc2c(cc1Oc1ccc(Cl)cc1)Oc1ccccc1NC2=O` gave Anaer choline gr inactive and Anaer choline gr early 1.3.
`Cc1cc(C2CCCN2C(=O)Nc2ccc3c(c2)OCO3)no1` (stereo unspecified) gave Anaer choline gr inactive and Anaer choline gr early -0.79.
`CC(=O)Nc1ccc2c(c1)nc(CN1CCCC1)n2C(C)C` gave Anaer choline gr inactive and Anaer choline gr early -1.9.
CCOc1ccc(NC(=O)C(C)n2nnc3sc4c(c3c2=O)CCCC4)cc1 (stereo unspecified) was read as Anaer choline gr inactive and Anaer choline gr early 0.01.
For O=C(Cn1nc2c(SC3CCCCC3)nccn2c1=O)NC1CCCC1 the results were Anaer choline gr inactive and Anaer choline gr early 0.45.
`Cc1cc2nc(NCc3ccc4c(c3)OCO4)c(C(=O)OC(C)C)nc2cc1C` gave Anaer choline gr inactive and Anaer choline gr early 0.68.
Screening Cc1cc(C(=O)NCCN(C)C)c2c(=O)n(C)c(=O)n(C)c2n1 returned Anaer choline gr inactive and Anaer choline gr early -0.19.
CCCCCCCCCCCCCCCCCCOC[C@H](COP(=O)([O-])OCC[N+](C)(C)C)OC was read as Anaer choline gr inactive and Anaer choline gr early -1.2&0.15&0.65.
Screening O=C(c1ccc(Cl)cc1)N1CCc2cc(CNS(=O)(=O)c3ccc(F)c(Cl)c3)ccc21 returned Anaer choline gr inactive and Anaer choline gr early 1.1.
`O=C(Nc1nnc(SCc2nnc(-c3ccccc3)o2)s1)c1ccccc1` gave Anaer choline gr inactive and Anaer choline gr early 0.91.
For COc1cccc(NC(=O)CCCc2nc(-c3cc4ccc(C)cc4[nH]c3=O)no2)c1 the results were Anaer choline gr inactive and Anaer choline gr early 0.59.
CCc1nc(-c2cc(S(=O)(=O)N3CCCC(C(=O)Nc4ccc(OC)cc4)C3)c(C)s2)no1 (stereo unspecified) was read as Anaer choline gr inactive and Anaer choline gr early 0.69.
`CC(=O)Nc1cc(-c2nc(-c3cccc(NC(=O)Nc4ccccc4)c3)no2)ccc1C` gave Anaer choline gr inactive and Anaer choline gr early -0.01.
`CCCNC(=O)C1CCC(CNS(=O)(=O)c2ccc3c(c2)CC(C)N3C(=O)C2CC2)CC1` (stereo unspecified) gave Anaer choline gr inactive and Anaer choline gr early -0.75.
For CCOc1ccc2nc(-n3nc(C)c4c3NC(=O)CC4c3cnn(CC)c3)sc2c1 (stereo unspecified) the results were Anaer choline gr inactive and Anaer choline gr early 0.55.
`Oc1ccc(Br)cc1-c1nc2cnccn2c1Nc1ccc(F)cc1` gave Anaer choline gr inactive and Anaer choline gr early -1.1.
Screening COc1cc(NC(=O)C2CCCN(C(=O)c3cc(-c4ccccn4)n[nH]3)C2)cc(OC)c1 (stereo unspecified) returned Anaer choline gr inactive and Anaer choline gr early 0.3.
Cc1oc(-c2ccccc2)nc1Cn1nnc(-c2nc(-c3cccc(Cl)c3)no2)c1C was read as Anaer choline gr inactive and Anaer choline gr early -1.2.
For CC1CCN(c2cc3c(cc2F)c(=O)c(S(=O)(=O)c2ccccc2)cn3C)CC1 the results were Anaer choline gr inactive and Anaer choline gr early 1.3.

A portion of the library; the hit share may differ from the screen's.
